D2 PAM: positive allosteric modulators of human D2 dopamine receptor; potentiation, % (concentration not given with the values); hit rate 0.23% among 360,000; P14416; DiscoveRx D2 beta-arrestin cells, luminescence, 90 min; 100% = 57 uM dopamine signal; active = potentiation of 50% or more; inconclusive = 30% to 50%; inactive = 30% or less;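 also: compound concentration not given in the record; tested on top of an EC20 dose of dopamine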
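PathHunter beta-arrestin assay in DiscoveRx D2 cells. Compounds were added with an EC20 of dopamine (50 nM final) for 90 min at 37 deg C. Luminescence was read 1 h after detection reagent, with 57 uM dopamine as the EC100 control.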
TRPML1 agonist: human mucolipin-1 channel agonism; Q9GZU1; TRPML1-expressing cells, Ca2+ dye fluorescence, FDSS; host cell line not named in the record; reference of the full effect not given here; activation, % (concentration not given with the values); hit rate 0.12% among 410,000; in the data active = activation above about 50%; inconclusive = about 30% to 50%; inactive = below about 30%; also: 0% is about no effect; the text of the record puts the active cut at 80%
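Tetracycline-induced TRPML1-DL cells are seeded and incubated overnight before loading with a no-wash Ca2+ dye and quencher. Agonist activity is taken from the 110 s fluorescence read following compound pin-transfer on an FDSS, before EC80 54-4 challenge.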
D2 agonist: human D2 receptor agonism in beta-arrestin assay. hit rate 0.084% among 360,000. activation, % (concentration not given with the values). AID 624465. DiscoveRx PathHunter D2 beta-arrestin, luminescence, 90 min; 100% = 57 uM dopamine signal. P14416; in the data active = activation above about 40%; inconclusive = about 15% to 40%; inactive = below about 15%; also: compound concentration not given in the record; the text of the record calls up to 30% inactive
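DiscoveRx PathHunter D2 beta-arrestin cells (2,100/well) attached overnight, then compound-stimulated 90 min at 37 C in HBSS/10 mM HEPES/0.1% Tween-20 buffer; beta-galactosidase complementation read by luminescence after 1 h at ambient temperature. Dopamine 57 uM final (EC100) as control.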
TRPML1 inh: inhibitors of human TRPML1 channel. TRPML1-inducible cells, Ca2+ dye fluorescence, FDSS; hits give low values; inhibition of EC80 agonist-evoked calcium signal. hit rate 0.02% among 390,000. Q9GZU1. activity change, negative = inhibition, % (concentration not given with the values). AID 624415; in the data active means activity change below about -50%; inconclusive means about -30% to -50%; inactive means above about -30%;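 also: stimulus is agonist 54-4 at its EC80 concentration; % is scaled to controls: 0 for no effect and ±100 for the full control effect; compound concentration not given in the record; the text of the record puts the active cut at -80%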
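Tet-induced TRPML1-DL cells loaded with Ca8 no-wash calcium dye were read kinetically on FDSS. Compound addition was followed by EC80 agonist 54-4 (4 uM final); inhibition was read over 110 s.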
Six1-Eya2 inh: Six1/Eya2 interaction inhibition; AlphaScreen GST-Six1/His-Eya2 binding, biochemical; hits give low values; control for the full effect not named in the record; activity change, % (no concentration beside the values); hit rate 0.56% among 360,000; AID 651725; in the data active = activity change below about -65%; inconclusive = about -30% to -65%; inactive = above about -30%; also: % is scaled to controls: 0 for no effect and ±100 for the full control effect; compound concentration not given in the record
Target sequence (O00167 whole entry, looked up): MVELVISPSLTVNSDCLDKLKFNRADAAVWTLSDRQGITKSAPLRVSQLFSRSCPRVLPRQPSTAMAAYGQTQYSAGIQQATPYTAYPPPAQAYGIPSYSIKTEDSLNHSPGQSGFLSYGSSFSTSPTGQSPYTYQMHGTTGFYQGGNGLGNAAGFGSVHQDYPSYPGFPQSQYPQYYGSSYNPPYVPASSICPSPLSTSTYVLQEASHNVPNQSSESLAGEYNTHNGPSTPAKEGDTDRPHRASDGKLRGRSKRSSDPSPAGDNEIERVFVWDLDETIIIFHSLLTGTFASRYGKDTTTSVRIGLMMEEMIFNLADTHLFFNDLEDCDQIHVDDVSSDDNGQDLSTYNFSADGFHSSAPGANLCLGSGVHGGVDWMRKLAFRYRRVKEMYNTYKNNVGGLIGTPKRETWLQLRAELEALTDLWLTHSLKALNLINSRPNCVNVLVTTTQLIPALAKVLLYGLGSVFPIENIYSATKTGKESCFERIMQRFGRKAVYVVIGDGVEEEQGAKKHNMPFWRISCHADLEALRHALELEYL
Target sequence (Q15475 whole entry, looked up): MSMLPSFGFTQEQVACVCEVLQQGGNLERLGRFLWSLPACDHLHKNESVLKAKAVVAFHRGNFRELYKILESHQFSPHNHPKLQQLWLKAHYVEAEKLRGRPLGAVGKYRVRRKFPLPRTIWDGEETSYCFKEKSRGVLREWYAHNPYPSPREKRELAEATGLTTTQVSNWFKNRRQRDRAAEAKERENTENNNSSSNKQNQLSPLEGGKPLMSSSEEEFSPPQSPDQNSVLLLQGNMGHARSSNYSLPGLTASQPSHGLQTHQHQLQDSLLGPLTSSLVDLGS
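Homogeneous AlphaScreen proximity assay pairing GST-Six1 with His-tagged Eya2 (added as 5X mix: 250 nM and 500 nM) in 50 mM Tris pH 8.0, 300 mM NaCl, 1 mM TCEP. Glutathione donor and nickel acceptor beads; 1 h, 37 °C, dark.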
PINK1 expr mod: PINK1 expression modulation; PINK1 immunofluorescence, high-content cytometry, 24 h; AID 624263; hit rate 0.2% among 410,000; Potency, µM (top dose mostly 76.6 µM), inactives show at the top dose activation (PINK1 increase), actives largely listed as activators; active = well fitted activation curve with a large enough effect; inconclusive = small, poorly fitted or top-dose-only effect; inactive = flat fitted curve, though single readings scatter; cell line not stated here;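 also: potency is read from the fitted curve at half-maximal effect; % of control where 0% means no effect; nearly all actives have a fitted effect of over 65% in size; a mitochondrial uncoupler was the plate control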
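PINK1 protein, normally rapidly degraded, was detected by immunofluorescence after 24 hour compound treatment of a stable cell line. Titration data (5 concentrations) came from laser-scanning cytometry, with CCCP-treated wells as controls.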
Starred values were filed as active, the others as inactive; nt = no result given; [ ] = another dose, or the depositor's remark.

SMILES	D2 PAM	TRPML1 agonist	D2 agonist	TRPML1 inh	Six1-Eya2 inh	PINK1 expr mod
C=CCN1CC(=O)N2Cc3[nH]c4ccccc4c3C[C@H]2C1=O	0.5	0.0	-3.4	2.5	-0.5	1.2%
COc1ccccc1NC(=O)c1ccc(N2CC3CC(C2)c2cccc(=O)n2C3)c(NC(=O)c2cccnc2)c1 (stereo not given)	-6.2	-0.6	-6.7	-1.7	-0.7	1.7%
COc1cc(NC(=O)c2cc(Cl)ccc2Cl)ccc1NC(=O)c1cc2ccccc2o1	nt	0.4	nt	-7.4	nt	5.9%
C=CCn1c(COc2ccccc2)nnc1SCC(=O)NCC(=O)OCC	-4.6	-0.1	-0.7	16.6	-2.2	1.9%
C/C(=N\NC(N)=O)C1CC(Cc2ccccc2)C(=O)O1 (stereo not given)	-7.2	-0.8	-3.0	2.9	6.0	1.0%
Cc1cccc(Cn2c(NCC(C)O)nc3c2c(=O)n(C)c(=O)n3C)c1 (stereo not given)	-0.1	-0.8	2.2	0.5	9.7	-0.5%
COc1ccc(C(=O)NCc2ccccn2)cc1	-5.1	-0.2	-2.5	2.4	0.1	3.4%
CCOC(=O)C1(C#N)Cc2ccccc2C1	-18.6	0.0	-0.6	0.5	2.5	0.2%
CCCS(=O)(=O)N1CCCC(C(=O)NCC2CCCO2)C1 (stereo not given)	-0.3	-0.8	-1.8	-1.1	-1.6	0.1%
COC(=O)c1sccc1NC(=O)Nc1cc(C)ccc1OC	-7.6	1.0	-2.1	8.3	-16.1	-0.6%
CC(=O)C1=C(NC(=O)c2ccc(C(F)(F)F)cc2)C[C@@H]2[C@H]1C2(C)C	-2.0	0.2	-1.3	-2.1	-2.1	8.6%
O=C(NCCCN1CCOCC1)C1CCC(=O)N1CCc1ccccc1 (stereo not given)	-9.2	-0.3	-4.1	0.3	-6.5	-1.2%
Cc1nc(SCC(=O)Nc2nnc(C(C)C)s2)n[nH]1	-3.1	-0.5	1.1	11.6	2.4	2.4%
Cc1ccccc1NC(=O)Nc1nc(CN(C)C)cs1	-9.2	0.2	-4.1	24.8	3.1	-0.2%
O=C(Nc1ccc2oc(-c3cccnc3)nc2c1)c1ccc(-c2ccccc2)o1	nt	1.0	nt	2.2	nt	5.9%
O=[N+]([O-])c1cccc(-n2nnnc2CN2CCCCCC2)c1	-0.8	1.2	0.8	-0.3	-2.3	-0.7%
COc1ccc(C(=O)NCc2ccncc2)cc1S(=O)(=O)N1CCOCC1	8.0	-0.5	2.2	33.5	-1.5	-3.1%
CCOc1ccc2nc(NC(=O)C3CCCN(S(=O)(=O)c4c(C)noc4C)C3)sc2c1 (stereo not given)	-0.2	0.1	2.6	-1.5	-15.7	1.3%
COc1cccc(CNCC(=O)NC(=O)NC2CCCC2)c1	-0.2	-0.8	4.7	2.9	8.1	1.4%
CN(Cc1cn(C)nc1-c1ccc(Oc2ccccc2)cc1)Cc1cnc2ccccn12	-22.6	1.6	-2.1	67.1	-6.2	1.4%
Nc1nnc(SCC(=O)NNC(=O)c2ccc([N+](=O)[O-])cc2)s1	-2.2	-0.3	-3.0	29.3	2.2	-0.4%
Cc1nn(Cc2c(F)c(F)c(F)c(F)c2F)c(C)c1NC(=O)c1ccc(COc2ccc(F)cc2)o1	-2.9	3.3	1.5	11.8	-0.6	-0.5%[38.3 µM]
O/N=C\c1cccn1-c1nccs1	-5.5	-0.7	-3.2	-8.6	-1.1	-1.5%
CC(C)(C)OC(=O)N[C@@H](Cc1ccccc1)c1nnc(SCC(=O)c2ccc(Cl)cc2)o1	-2.7	-0.5	4.9	0.4	4.4	17.4%[38.3 µM]
COc1ccccc1CC(=O)Nc1cccc(C(=O)Nc2nccs2)c1	-6.1	1.7	-3.6	0.1	-5.2	1.2%
Cc1cc(C)nc(SCc2ccc3nonc3c2)n1	-10.2	1.2	-2.1	5.2	9.4	8.8%[38.3 µM]
CC(O)(c1cccc(F)c1)c1nc(-c2cccc(C(F)(F)F)c2)cs1 (stereo not given)	-2.2	-0.2	2.4	nt	10.8	-1.0%
O=C(Oc1ccccc1N1C(=O)CCC1=O)c1ccco1	-0.2	-0.9	-0.3	-10.4	13.2	1.5%
CCCCCCCOC(=O)c1nc(Cl)c(Cl)c(N)c1Cl	-5.7	3.1	-5.5	24.7	7.9	17.4%
C[C@H]1CN([C@@H](C)CO)C(=O)c2cc(NC(=O)Nc3cccc4ccccc34)ccc2O[C@@H]1CN(C)Cc1ccc(-c2ccccc2)cc1	-41.9	-0.6	5.7	-13.1	-10.0	0.4%
Brc1cc2c(cc1CSc1ncccn1)OCO2	-0.7	2.7	1.9	1.1	11.9	1.5%
O=C(c1n[nH]c(=O)c2ccccc12)N1CCN(S(=O)(=O)c2ccccc2Cl)CC1	-7.8	-0.1	-6.9	39.3	9.8	-0.6%
CCOC(=O)[C@]12CCC=C1N(Cc1cccc3ccccc13)C(=O)[C@H](CC(=O)NCC13CC4CC(CC(C4)C1)C3)C2	nt	0.1	nt	nt	-6.3	-0.6%
CN(C)C1(CNC(=O)C2CCN(S(=O)(=O)c3cc(Cl)ccc3Cl)CC2)CCCCC1	-25.5	0.0	-3.2	-9.7	3.0	-1.2%
CCOC(=O)C1CCN(C(=O)COc2ccc(Cl)cc2)CC1	-24.5	-0.6	1.4	-2.1	9.0	2.8%
O=C(Cn1cc(S(=O)(=O)Cc2ccc(F)cc2)c2ccccc21)NCc1ccccc1	nt	0.5	nt	0.4	nt	1.9%
CN(CCc1ccccn1)C(=O)CCC1CCCN(C(=O)CCOc2ccccc2)C1 (stereo not given)	-8.0	0.6	1.6	11.8	11.8	-0.5%
Cc1ccc(-n2nnnc2-c2cnc3cc4c(cc3c2C)OCO4)cc1	-13.5	0.1	-2.3	3.9	-4.5	-2.6%
CCCCOC(=O)Cn1c(=O)c2c(nc3n2CCCCN3c2ccc(C)cc2)n(C)c1=O	-10.5	0.1	0.2	-5.4	-18.6	0.1%
Cc1cc(C)c(OCCCCN2CCC(C)CC2)c(Br)c1	-15.2	-1.4	-2.2	-16.8	-3.8	5.0%

Next section, starting with the last two of the part before.
SMILES	D2 PAM	TRPML1 agonist	D2 agonist	TRPML1 inh	Six1-Eya2 inh	PINK1 expr mod
CCCCOC(=O)Cn1c(=O)c2c(nc3n2CCCCN3c2ccc(C)cc2)n(C)c1=O	-10.5	0.1	0.2	-5.4	-18.6	0.1%
Cc1cc(C)c(OCCCCN2CCC(C)CC2)c(Br)c1	-15.2	-1.4	-2.2	-16.8	-3.8	5.0%
Cc1cc(C(=O)Cn2cc(C(F)(F)F)ccc2=O)c(C)n1CC1CCCO1 (stereo not given)	9.3	-0.3	3.6	10.0	-1.9	0.7%
Cc1nn(-c2cccc(C(F)(F)F)c2)c(Cl)c1/C=N/n1cnnc1	-7.8	0.3	-0.1	-5.0	1.7	-0.3%
O=S(=O)(c1cccs1)N1CCC(CO)(Cc2ccc(Cl)cc2)CC1	-1.4	0.1	-1.1	-10.1	0.0	0.2%
COc1cccc(C2=CC(c3cccc(OC)c3OC(F)F)n3nnnc3N2)c1 (stereo not given)	0.5	-1.1	-2.8	1.8	-1.7	8.9%
Nn1c(SCC(=O)NC2CCCCC2)nnc1C1CC1	1.0	0.4	-0.5	44.0	3.9	-0.9%
C=CCNc1nc(Nc2ccccc2F)nc(OCC)n1	1.7	1.2	0.4	2.2	13.1	-1.3%
CC(=O)Oc1c(Cl)cc(N(C(C)=O)S(=O)(=O)c2ccccc2)c2ccccc12	-15.5	-0.8	1.8	-4.5	-2.8	2.2%
COc1cc2c(cc1OC)CN(c1ccc([N+](=O)[O-])cc1C#N)CC2	-6.3	-0.5	2.7	14.6	-20.3	-1.4%
CC(=O)Nc1ccc(NC(=O)C2CCN(S(=O)(=O)c3ccc4c(c3)OCCO4)CC2)cc1	-4.1	0.7	5.6	17.4	-0.9	-1.0%
Cc1ccc(S(=O)(=O)N2C[C@H]3C(=O)C[C@@H](c4ccccc4C)N(S(=O)(=O)c4ccc(C)cc4)[C@H]3C[C@H]2c2ccccc2)cc1	-4.2	1.7	-2.6	-5.0	-0.3	2.1%
CC(C)COc1cccc(C(=O)NC(=S)NCc2cccnc2)c1	0.4	1.7	4.6	18.2	-7.6	0.1%
COc1ccc2c(CC#N)c[nH]c2c1	-3.9	-0.4	-3.6	-6.7	3.5	0.5%
S=C(NCC1CCCO1)Nc1cccc2ccccc12 (stereo not given)	-1.5	1.0	-3.2	18.7	3.4	0.0%
CN(C1CCCCC1)S(=O)(=O)c1ccc(F)c(C(=O)Nc2ccc(C(F)(F)F)cc2)c1	nt	0.6	nt	19.2	nt	3.7%
C[C@@H]1COc2cc(N3CCSCC3)ccc2S(=O)(=O)N1	nt	-0.5	nt	nt	5.4	-0.4%
Cc1ccccc1Cn1c(=O)n(Cc2ccc(Cl)cc2)c(=O)c2cccnc21	nt	-0.6	nt	6.4	nt	-0.5%
Cc1ccc(C)c(NC(=O)CCC(=O)N/N=C/c2cccnc2)c1	22.2	-0.1	-1.0	-6.0	1.5	-0.6%
COc1ccc(CC(NC(C)=O)C(=O)N2CCN(C(=O)N(C(C)C)C(C)C)CC2)cc1 (stereo not given)	-30.8	2.6	-1.4	19.6	2.6	1.9%[38.3 µM]

Grouped by structure: the compounds so far containing fluorine (9)
SMILES	D2 PAM	TRPML1 agonist	D2 agonist	TRPML1 inh	Six1-Eya2 inh	PINK1 expr mod
CC(=O)C1=C(NC(=O)c2ccc(C(F)(F)F)cc2)C[C@@H]2[C@H]1C2(C)C	-2.0	0.2	-1.3	-2.1	-2.1	8.6%
Cc1nn(Cc2c(F)c(F)c(F)c(F)c2F)c(C)c1NC(=O)c1ccc(COc2ccc(F)cc2)o1	-2.9	3.3	1.5	11.8	-0.6	-0.5%[38.3 µM]
CC(O)(c1cccc(F)c1)c1nc(-c2cccc(C(F)(F)F)c2)cs1 (stereo not given)	-2.2	-0.2	2.4	nt	10.8	-1.0%
O=C(Cn1cc(S(=O)(=O)Cc2ccc(F)cc2)c2ccccc21)NCc1ccccc1	nt	0.5	nt	0.4	nt	1.9%
Cc1cc(C(=O)Cn2cc(C(F)(F)F)ccc2=O)c(C)n1CC1CCCO1 (stereo not given)	9.3	-0.3	3.6	10.0	-1.9	0.7%
Cc1nn(-c2cccc(C(F)(F)F)c2)c(Cl)c1/C=N/n1cnnc1	-7.8	0.3	-0.1	-5.0	1.7	-0.3%
COc1cccc(C2=CC(c3cccc(OC)c3OC(F)F)n3nnnc3N2)c1 (stereo not given)	0.5	-1.1	-2.8	1.8	-1.7	8.9%
C=CCNc1nc(Nc2ccccc2F)nc(OCC)n1	1.7	1.2	0.4	2.2	13.1	-1.3%
CN(C1CCCCC1)S(=O)(=O)c1ccc(F)c(C(=O)Nc2ccc(C(F)(F)F)cc2)c1	nt	0.6	nt	19.2	nt	3.7%
